NPYLR7 ag = activates Aedes aegypti NPYLR7 receptor; 270,000 compounds, 0.15% hits; HEK293T NPYLR7/Galpha15, GCaMP6s calcium fluorescence; activation, % at 10 µM; in the data active = activation above about 40%;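 also: 0% = vehicle and 100% = reference agonist at the receptor; some compounds past the cut are filed as inactive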
NPYLR7 ag max-min = recorded beside NPYLR7 ag, whose call it bears; activation, %; measured here: Max-Min RFU normalised activation; some inactives read as strong as hits;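 span of the calcium signal over five minutes; 0% = vehicle and 100% = native peptide agonist; compound fluorescence can raise it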
Starred values were filed as active, the others as inactive; & = joins results of further samples.

What do the screens show for `O=c1c2sccc2n(Cc2cc(=O)n3cc(Cl)ccc3n2)c(=O)n1-c1cc(F)ccc1F`?
NPYLR7 ag: 15; NPYLR7 ag max-min: 6

How did COc1ccc(-c2cc(C(=O)NCc3cccc(C(F)(F)F)c3)n(-c3ccc([N+](=O)[O-])cc3)n2)cc1 do in these assays?
NPYLR7 ag: 13; NPYLR7 ag max-min: 11

How did Cn1ccc(C(=O)N=c2sc3cc4c(cc3n2C)OCCO4)n1 do in these assays?
NPYLR7 ag: 6; NPYLR7 ag max-min: 13

What do the screens show for `COc1cc(NC(=O)Cn2nc(C(F)(F)F)c(Cl)c2C)cc([N+](=O)[O-])c1`?
NPYLR7 ag: -10; NPYLR7 ag max-min: -15

What do the screens show for `CC1(C)Cc2c(cnn2-c2ccccc2)C(NC2CCN(Cc3ccco3)CC2)C1` (stereo not given)?
NPYLR7 ag: 17; NPYLR7 ag max-min: 10

Results for OC(c1ccccc1)c1ncc(-c2ccccc2F)[nH]1 (stereo not given) ?
NPYLR7 ag: -1; NPYLR7 ag max-min: -1

How did N#Cc1ccc(Cl)cc1N1CCCC(C2OCCO2)C1 (stereo not given) do in these assays?
NPYLR7 ag: 13; NPYLR7 ag max-min: 13

What do the screens show for `CCN(CC)c1cc(-c2ccccc2)nc(SCc2ccc(C(=O)NCCc3ccccn3)o2)n1`?
NPYLR7 ag: 3; NPYLR7 ag max-min: 0

How did CC1CCCCN1CCCNC(=O)c1cc(-c2ccccc2F)nc2cc(-c3ccccc3)nn12 (stereo not given) do in these assays?
NPYLR7 ag: 17; NPYLR7 ag max-min: 22

Results for Cc1ccc(S(=O)(=O)N(C)C)cc1N=c1scc(-c2ccco2)n1C1CC1 ?
NPYLR7 ag: 0; NPYLR7 ag max-min: -1

Results for CCOC(=NCCCc1ccccc1)NC(=O)c1ccc(OC)cc1 ?
NPYLR7 ag: -1; NPYLR7 ag max-min: 2

Results for CCC(C)N(Cc1cc(Cl)ccc1OCc1nc(CO)cs1)C(=O)c1cccs1 (stereo not given) ?
NPYLR7 ag: 11; NPYLR7 ag max-min: 11

What do the screens show for `FC(F)(F)CCCN1CCC(n2cc(C3CCCCC3)nn2)CC1`?
NPYLR7 ag: 8; NPYLR7 ag max-min: 0

How did Cc1cc(Oc2cccc(C#N)c2C#N)cc(Oc2cccc(C#N)c2C#N)c1 do in these assays?
NPYLR7 ag: -15; NPYLR7 ag max-min: -21

How did CCC(=O)Nc1nnc(CC(=O)N/N=C\c2ccncc2)s1 do in these assays?
NPYLR7 ag: 5; NPYLR7 ag max-min: 3

What do the screens show for `Cc1cc(C=C2C(=O)N(C)C(=O)N(C)C2=O)c(C)n1-c1cccc([N+](=O)[O-])c1`?
NPYLR7 ag: 3; NPYLR7 ag max-min: 5

Results for NCC1CCCCC1CC(=O)O (stereo not given) ?
NPYLR7 ag: 3; NPYLR7 ag max-min: -9

Results for C=C(C)CNC(=O)c1cc(NC(C)=O)ccc1Cl ?
NPYLR7 ag: 7; NPYLR7 ag max-min: 5

How did CCc1ccc(OCC(O)CSc2nncn2C)cc1 (stereo not given) do in these assays?
NPYLR7 ag: 12; NPYLR7 ag max-min: 17

Results for CCSc1nc(CC(=O)NCc2snnc2C(C)C)cs1 ?
NPYLR7 ag: 4; NPYLR7 ag max-min: 3

How did CC(C)CCc1nc(N2CCN(C(=O)c3ccc(C(F)(F)F)cc3)CC2)c2cnn(-c3cccc(Cl)c3)c2n1 do in these assays?
NPYLR7 ag: 34; NPYLR7 ag max-min: 27

How did Cc1cc(C(F)(F)F)nc(CNC(=O)c2ncccc2C)n1 do in these assays?
NPYLR7 ag: 11; NPYLR7 ag max-min: 2

Results for O=C(CSc1nnc(CNC(=O)c2cccs2)n1-c1ccc(F)cc1)Nc1nccs1 ?
NPYLR7 ag: 14; NPYLR7 ag max-min: 16

Results for CC(Sc1ccccc1)C(=O)NNC(=O)c1cccc(S(=O)(=O)N(C)C)c1 (stereo not given) ?
NPYLR7 ag: 6; NPYLR7 ag max-min: 4

Results for CCCC1SCCN1C(=O)CCc1c(C)nc(SC)[nH]c1=O (stereo not given) ?
NPYLR7 ag: -8; NPYLR7 ag max-min: -7

Results for CC(c1cc2ccccc2o1)N(C)C(=O)c1ccc2c(c1)OCC(=O)N2 (stereo not given) ?
NPYLR7 ag: 17; NPYLR7 ag max-min: 10

What do the screens show for `CCN(CC)c1ccc2c(-c3ccccc3C(=O)O)c3ccc(=[N+](CC)CC)cc-3oc2c1`?
NPYLR7 ag: 44*; NPYLR7 ag max-min: 45*

How did COC(=O)CN(C)C(=O)Cc1c(Cl)cccc1Cl do in these assays?
NPYLR7 ag: 15; NPYLR7 ag max-min: 12

What do the screens show for `OCc1ccnc(-c2cccc(C(F)(F)F)c2)c1`?
NPYLR7 ag: 2; NPYLR7 ag max-min: -2

Results for CCN(C(=O)Cn1ccn2nc(-c3ccc(C)cc3)cc2c1=O)c1cccc(C)c1 ?
NPYLR7 ag: 2; NPYLR7 ag max-min: 1

How did Cc1[nH]c2ccc(CNC(=O)CC3CCS(=O)(=O)C3)cc2c1C (stereo not given) do in these assays?
NPYLR7 ag: -3; NPYLR7 ag max-min: -3

Results for Cn1c(CNc2ccc(I)cc2)cc(=O)n(C)c1=O ?
NPYLR7 ag: 14; NPYLR7 ag max-min: 6

Results for COc1c[nH]n(C(C)(C)C)c(=O)c1=O ?
NPYLR7 ag: -10; NPYLR7 ag max-min: -15

How did COc1cn(CC(=O)Nc2ccc(C)c(Cl)c2)c(CN2CCC(C)CC2)cc1=O do in these assays?
NPYLR7 ag: 1; NPYLR7 ag max-min: 2

Results for CCCN(Cc1ccncc1)C(=O)c1c[nH]c(=O)cn1 ?
NPYLR7 ag: -2; NPYLR7 ag max-min: -2

Results for Cc1cc(NC2CC(=O)N(CC(C)(C)C)C2)nc(-c2ccccc2)n1 (stereo not given) ?
NPYLR7 ag: 9; NPYLR7 ag max-min: 5

How did Cc1nsc(NC(=O)N2CCC(Sc3ccccc3C)CC2)n1 do in these assays?
NPYLR7 ag: 0; NPYLR7 ag max-min: 9

How did CC(C)NC(=O)N(Cc1c(-c2ccccc2)noc1N1CCc2ccccc2C1)CC1CCCO1 (stereo not given) do in these assays?
NPYLR7 ag: -8; NPYLR7 ag max-min: 5

What do the screens show for `O=C(CN1CCN(C(=O)c2cccs2)CC1)Nc1ccc(I)cc1`?
NPYLR7 ag: 0; NPYLR7 ag max-min: 5

Results for CC(C)CCC1=NC2(CCN(C(=O)C3CCOC(C)(C)C3)CC2)C(=O)N1 (stereo not given) ?
NPYLR7 ag: 4; NPYLR7 ag max-min: 3

What do the screens show for `Cc1ncc2c(c1CNS(=O)(=O)N(C)C)CCN(C(=O)Cc1c(F)ccc(F)c1F)C2`?
NPYLR7 ag: 17; NPYLR7 ag max-min: 6

Results for COCCn1cc(C(=O)NCCC(C)C)c2nn(-c3ccccc3)c(=O)c-2c1 ?
NPYLR7 ag: 4; NPYLR7 ag max-min: 3

How did C=CCN1C(=O)C2C(C1=O)C1(Br)c3ccccc3C2(Br)c2ccccc21 (stereo not given) do in these assays?
NPYLR7 ag: 18; NPYLR7 ag max-min: 11

What do the screens show for `Nc1cc(-c2csc(C(=O)O)c2)c2cc[nH]c2n1`?
NPYLR7 ag: -1; NPYLR7 ag max-min: -2

Results for CCOC(=O)C1CCN(C(=O)c2coc(CN(Cc3ccccc3)Cc3ccccc3Cl)n2)CC1 ?
NPYLR7 ag: 16; NPYLR7 ag max-min: 10

How did CCOC(=O)N1CCC(NCc2n[nH]c3c2CCCCC3)CC1 do in these assays?
NPYLR7 ag: -5; NPYLR7 ag max-min: -7

Results for Cc1ccc(CC2(NC(=O)c3cccc(-n4cnnc4)n3)CC2)cc1 ?
NPYLR7 ag: 24; NPYLR7 ag max-min: 15

What do the screens show for `CCOc1ncccc1C(=O)NC1CCN(c2ccccc2)CC1`?
NPYLR7 ag: -7; NPYLR7 ag max-min: -7

Results for Cc1ccccc1CN1CCNC(=O)C1CC(=O)NCCc1ccccc1F (stereo not given) ?
NPYLR7 ag: 12; NPYLR7 ag max-min: 1

Results for CCNC(=O)C1(C)CCN(Cc2ccc(C(F)(F)F)cc2)C1 (stereo not given) ?
NPYLR7 ag: 2; NPYLR7 ag max-min: 1

3 compounds drawn at random from the list so far, as already listed:
What do the screens show for `CCOc1ncccc1C(=O)NC1CCN(c2ccccc2)CC1`?
NPYLR7 ag: -7; NPYLR7 ag max-min: -7

Results for Cc1ccc(CC2(NC(=O)c3cccc(-n4cnnc4)n3)CC2)cc1 ?
NPYLR7 ag: 24; NPYLR7 ag max-min: 15

What do the screens show for `Cc1ncc2c(c1CNS(=O)(=O)N(C)C)CCN(C(=O)Cc1c(F)ccc(F)c1F)C2`?
NPYLR7 ag: 17; NPYLR7 ag max-min: 6

The list goes on.
What do the screens show for `CC1=C(C(=O)OC(C)C)C(c2ccc(N(C)C)cc2)NC(=O)N1` (stereo not given)?
NPYLR7 ag: -7; NPYLR7 ag max-min: -14

How did c1csc(-c2nnc(SCc3cscn3)n2C2CC2)c1 do in these assays?
NPYLR7 ag: 1; NPYLR7 ag max-min: 19

What do the screens show for `COc1ccc(-n2c(Cc3ccccc3)nnc2SCc2ccc(C(=O)NCc3ccco3)cc2)cc1`?
NPYLR7 ag: 7; NPYLR7 ag max-min: 7

How did CCOC(=O)c1nn(-c2ccccc2)c(=O)cc1OS(=O)(=O)c1ccc(OCC)cc1 do in these assays?
NPYLR7 ag: -2; NPYLR7 ag max-min: 0

What do the screens show for `O=C(NC(c1ccc(F)cc1)c1ccc2ccccc2n1)C1CCN(Cc2ccccn2)CC1` (stereo not given)?
NPYLR7 ag: 5; NPYLR7 ag max-min: 1

What do the screens show for `O=C(O)c1cc(C2=CCCCC2)cc(S(=O)(=O)NCC2CCCO2)c1` (stereo not given)?
NPYLR7 ag: 4; NPYLR7 ag max-min: 2

How did O=C1CSC(c2cc3c(cc2Br)OCO3)N1c1ccccc1 (stereo not given) do in these assays?
NPYLR7 ag: -6; NPYLR7 ag max-min: -12

How did Cc1ccc(C2(O)CCN(C(=O)c3cc4nc(C)cc(C)n4n3)CC2)nc1 do in these assays?
NPYLR7 ag: 3; NPYLR7 ag max-min: 0

What do the screens show for `CCCc1nc(N2CCN(C(=O)Nc3ccccc3F)CC2)c2c(-c3cccc(C(F)(F)F)c3)noc2n1`?
NPYLR7 ag: 19; NPYLR7 ag max-min: 5

How did O=C(/C=C/c1ccncc1)Nc1ccc(NCC2CCCO2)c(F)c1 (stereo not given) do in these assays?
NPYLR7 ag: 9; NPYLR7 ag max-min: 8

4 entries from above, sorted by length of the SMILES, falling.
What do the screens show for `CCCc1nc(N2CCN(C(=O)Nc3ccccc3F)CC2)c2c(-c3cccc(C(F)(F)F)c3)noc2n1`?
NPYLR7 ag: 19; NPYLR7 ag max-min: 5

What do the screens show for `O=C(NC(c1ccc(F)cc1)c1ccc2ccccc2n1)C1CCN(Cc2ccccn2)CC1` (stereo not given)?
NPYLR7 ag: 5; NPYLR7 ag max-min: 1

How did Cc1ccc(C2(O)CCN(C(=O)c3cc4nc(C)cc(C)n4n3)CC2)nc1 do in these assays?
NPYLR7 ag: 3; NPYLR7 ag max-min: 0

How did c1csc(-c2nnc(SCc3cscn3)n2C2CC2)c1 do in these assays?
NPYLR7 ag: 1; NPYLR7 ag max-min: 19

The results go on.
Results for CCc1nc(C)c(C(C)=O)c(SC(C)C(=O)NCC(F)(F)F)n1 (stereo not given) ?
NPYLR7 ag: 4; NPYLR7 ag max-min: 7

How did Cn1cc(SCC(=O)NCc2cc(=O)[nH]c(C(C)(C)C)n2)c2ccccc21 do in these assays?
NPYLR7 ag: 11; NPYLR7 ag max-min: 2

Results for CCOC(=O)Cn1c(=O)c2c(nc3n(CC)c(C)c(C)n23)n(C)c1=O ?
NPYLR7 ag: 13; NPYLR7 ag max-min: 14

What do the screens show for `O=C(O)c1ccc(-c2ccc3cc(C45CC6CC(CC(C6)C4)C5)c(O)cc3c2)cc1`?
NPYLR7 ag: -18; NPYLR7 ag max-min: -23

What do the screens show for `CCc1nc2ccc(C(=O)NC(C)(C)C)cn2c1N(C)C(=O)c1cccc(OC)c1`?
NPYLR7 ag: 23; NPYLR7 ag max-min: 20

How did CCCNC(=O)C(C)NC(=O)c1n[nH]c(C(C)C)c1Br (stereo not given) do in these assays?
NPYLR7 ag: 1; NPYLR7 ag max-min: -1

What do the screens show for `CC(C)(C)c1ccc(C(=O)N=Nc2c(O)[nH]c3ccccc23)cc1`?
NPYLR7 ag: 6&-2; NPYLR7 ag max-min: 1&-8

What do the screens show for `Nc1cc(-c2ccc(Cl)c(Cl)c2)nn1-c1ccc(C(=O)NCCc2cccc(Cl)c2)cc1`?
NPYLR7 ag: 0; NPYLR7 ag max-min: -4

Results for Cc1ccc(-c2n[nH]c(=S)n2CC(=O)Nc2ccc3c(c2)OC2(CCCC2)O3)cc1 ?
NPYLR7 ag: 8; NPYLR7 ag max-min: 7

What do the screens show for `Cc1cc(=O)[nH]c(-c2ccc(NC(=O)c3cc(F)ccc3C)cc2)n1`?
NPYLR7 ag: 5; NPYLR7 ag max-min: 0

Screening results as filed in PubChem.

The list is partial; rates above refer to the full screens.
